Screening results (PubChem)
Mtb bLac sens: beta-lactam sensitization of Mtb H37Rv, H37Rv | inhibition, % at 25 µM | AID 434955, 2010 | hit rate 0.27% among 330,000 | M. tuberculosis H37Rv growth with meropenem, percent inhibition; hits of this screen are not shown here;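 active = about 74% or more and at least 40 points above the plate without the antibiotic, then above 30% in a dose series; inconclusive = first-round hits that could not be retested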;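 also: growth measured after seven days incubation then overnight dye step; 0% = bacteria only wells and 100% = bacteria with antibiotic; twin plates without the antibiotic show which effects depend on it; some results filed as inactive read as strong as hits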
Arbovirus anti: antivirals against arbovirus infection, primary screen, cell-based, full library, 10K replicate subset; arbovirus infection cell-based antiviral screen; inhibition, % at 10 µM; hit rate 0.37% among 200,000; AID 1251, 2008;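 active = inhibition from about 30%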;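 also: bluetongue infection of BSR cells; cell survival read as ATP light after 72 h; 0% = infected wells without compound and 100% = uninfected wells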
Mtb H37Rv: M. tuberculosis H37Rv growth inhibitors, H37Rv strain (AID 1626); M. tuberculosis H37Rv growth inhibition; higher % means a stronger effect; inhibition, % at 10 µM; hits with a dose series show IC50 in µM; hit rate 0.95% among 220,000;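 active = confirmed in a dose series; inconclusive = inhibition above 80% but not taken into the dose series; inactive = below 80% or under 30% at every dose of the series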;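 also: bacteria incubated seven days before Alamar blue readout; 0% = bacteria only wells and 100% = bacteria with antibiotic wells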
YopH inh: YopH tyrosine phosphatase inhibitors, primary screen, biochemical, fluorescence Ex485/Em525; hit rate 0.16% among 140,000; inhibition, %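 (about 10 µM by stock and volumes)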;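 active = inhibition of 50% or more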;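 also: controls were vehicle for no effect and minimum signal wells for full effect; inactives centre near -20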
RecA splice inh: Mtb RecA intein splicing inhibitors, primary screen, biochemical, fluorescence, HTS; Protein RecA (Mycobacterium tuberculosis (strain ATCC 25618 / H37Rv)), P9WHJ3; cell-free RecA intein splicing; inhibition, %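 (about 9 µM by stock and volumes)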; hit rate 0.75% among 290,000; in the data active = inhibition above about 30%; inconclusive = no clear call, values can overlap the other calls;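 also: 0% = vehicle wells and 100% = reference inhibitor control wells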
Target sequence (P9WHJ3 whole entry, looked up, canonical isoform): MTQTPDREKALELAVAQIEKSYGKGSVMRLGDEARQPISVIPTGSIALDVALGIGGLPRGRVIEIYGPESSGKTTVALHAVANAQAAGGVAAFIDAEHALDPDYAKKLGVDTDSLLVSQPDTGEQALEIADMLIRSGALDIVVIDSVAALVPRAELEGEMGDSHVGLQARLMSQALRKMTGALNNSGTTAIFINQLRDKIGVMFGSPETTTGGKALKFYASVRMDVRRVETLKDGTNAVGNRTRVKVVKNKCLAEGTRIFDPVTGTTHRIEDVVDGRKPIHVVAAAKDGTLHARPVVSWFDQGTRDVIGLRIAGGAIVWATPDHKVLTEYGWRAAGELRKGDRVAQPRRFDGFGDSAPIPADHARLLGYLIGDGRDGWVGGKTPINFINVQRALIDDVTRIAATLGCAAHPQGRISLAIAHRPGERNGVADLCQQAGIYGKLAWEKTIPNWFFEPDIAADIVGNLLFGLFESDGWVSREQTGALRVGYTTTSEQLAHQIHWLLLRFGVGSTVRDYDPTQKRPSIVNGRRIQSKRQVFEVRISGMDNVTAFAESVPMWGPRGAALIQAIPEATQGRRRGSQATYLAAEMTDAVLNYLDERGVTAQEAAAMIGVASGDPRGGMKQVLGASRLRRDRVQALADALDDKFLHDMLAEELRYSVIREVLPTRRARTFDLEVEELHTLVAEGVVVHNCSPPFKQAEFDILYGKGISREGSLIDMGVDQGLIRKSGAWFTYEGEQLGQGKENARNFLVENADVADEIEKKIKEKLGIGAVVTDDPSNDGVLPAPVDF
Arbovirus anti repeat: recorded beside Arbovirus anti, whose call it bears; inhibition, %; measured here: 10K subset replicate screen; many hits read low in the repeat;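 first of two repeat runs on a subset; 0% = infected and 100% = uninfected wells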
The depositor's hits bear a star; i = inactive; ? = inconclusive; · = no result given. This is a subset (hit frequency here may not be typical).

SMILES	Mtb bLac sens	Arbovirus anti	Mtb H37Rv	YopH inh	RecA splice inh	others
COC(=O)c1cc(S(=O)(=O)N2CCC(C(N)=O)CC2)oc1C	5.2	·	-8.1%	·	-6.2
CCOc1cc2[nH]c(=S)n(CCCCC(=O)NCc3ccco3)c(=O)c2cc1OCC	6.1	-15.9	-1.2%	-30.7	-0.7
CCCc1c(C(=O)N/N=C/c2ccccc2OCc2ccc(F)cc2)nnn1-c1nonc1N	3.9	·	·	·	-1.0
COc1ccccc1N1CCN(S(=O)(=O)c2cc(-c3cc(C)no3)ccc2C(C)C)CC1	-2.4	·	·	·	-4.5
O=C(O)C(c1ccccc1)C1(O)CCCCC1 (configuration not stated)	-7.3	·	-4.3%	·	-1.2
CCCN1CCN(C(=O)Nc2ccc(OCC)cc2)CC1	2.9	0.8	26.6%	·	-1.2
O=C(Cc1cc(=O)[nH]c(=O)[nH]1)NCCN1CCOCC1	3.6	3.2	-2.6%	-15.0	-1.1	Arbovirus anti repeat=8.1
Cc1ccc(OC(=O)C(C)c2cccc(C(=O)c3ccccc3)c2)cc1 (configuration not stated)	5.8	3.8	-5.7%	-13.1	7.8
CCCN1CCc2c(sc3nc(SC)n(-c4ccccc4)c(=O)c23)C1	35.2	·	·	·	-25.2
COc1ccc(C(=O)Nc2nc(N)n(-c3ccccc3)n2)cc1OC	-5.9	7.1	-3.0%	-38.8	2.9
CCCOC1(NC(=O)c2ccccc2)C(C)=CC(=O)C=C1C	-1.6	2.2	-5.1%	-28.5	-3.9
CCOc1cccc2sc(=NC(=O)CCS(=O)(=O)c3ccccc3)n(CC)c12	5.4	·	·	·	0.9
COC(=O)C(C)Oc1ccc(Oc2nc(Cl)ccc2Cl)cc1 (configuration not stated)	99.4	5.0	?	·	4.1
O=C(c1cc2ccccc2oc1=O)N(Cc1cccs1)C1CCS(=O)(=O)C1 (configuration not stated)	-16.6	9.2	-6.7%	-20.1	1.5
COc1cc(NS(=O)(=O)c2ccc(-c3ccc(=O)[nH]n3)o2)cc(OC)c1OC	-5.0	·	·	·	0.6
Cc1nc2nc(-c3ccc(F)cc3)cn2nc1C	?	·	·	·	i
CNC(=O)c1cn(-c2ccccc2)c(=O)c2ccccc12	-4.6	-1.3	-0.4%	-30.1	0.4
COc1ccc(Cn2nnnc2CN2CCC(O)(c3ccccc3F)CC2)cc1	-3.6	-7.7	-4.6%	·	-4.0
CCC1CCCCN1CC(O)Cn1c2ccccc2n2c(=O)cc(C)c(C#N)c12 (configuration not stated)	4.6	-10.8	1.4%	-3.2	-0.5
O=C(NCC(c1ccc(F)cc1)N1CCOCC1)c1ccc(C(=O)c2ccccc2)cc1 (configuration not stated)	7.2	·	3.7%	·	0.3

In the list so far, three have a furan ring, fused or not.
SMILES	Mtb bLac sens	Arbovirus anti	Mtb H37Rv	YopH inh	RecA splice inh	others
COC(=O)c1cc(S(=O)(=O)N2CCC(C(N)=O)CC2)oc1C	5.2	·	-8.1%	·	-6.2
CCOc1cc2[nH]c(=S)n(CCCCC(=O)NCc3ccco3)c(=O)c2cc1OCC	6.1	-15.9	-1.2%	-30.7	-0.7
COc1cc(NS(=O)(=O)c2ccc(-c3ccc(=O)[nH]n3)o2)cc(OC)c1OC	-5.0	·	·	·	0.6

Arranged by molecular weight (rising): 3 of the compounds above.
SMILES	Mtb bLac sens	Arbovirus anti	Mtb H37Rv	YopH inh	RecA splice inh	others
CCCOC1(NC(=O)c2ccccc2)C(C)=CC(=O)C=C1C	-1.6	2.2	-5.1%	-28.5	-3.9
CCOc1cccc2sc(=NC(=O)CCS(=O)(=O)c3ccccc3)n(CC)c12	5.4	·	·	·	0.9
O=C(NCC(c1ccc(F)cc1)N1CCOCC1)c1ccc(C(=O)c2ccccc2)cc1 (configuration not stated)	7.2	·	3.7%	·	0.3

Gathered by group, those above with a thiophene ring, fused or not
SMILES	Mtb bLac sens	Arbovirus anti	Mtb H37Rv	YopH inh	RecA splice inh	others
CCCN1CCc2c(sc3nc(SC)n(-c4ccccc4)c(=O)c23)C1	35.2	·	·	·	-25.2
O=C(c1cc2ccccc2oc1=O)N(Cc1cccs1)C1CCS(=O)(=O)C1 (configuration not stated)	-16.6	9.2	-6.7%	-20.1	1.5

At a glance, two of the compounds above:
SMILES	Mtb bLac sens	Arbovirus anti	Mtb H37Rv	YopH inh	RecA splice inh	others
COc1ccc(C(=O)Nc2nc(N)n(-c3ccccc3)n2)cc1OC	-5.9	7.1	-3.0%	-38.8	2.9
CCCOC1(NC(=O)c2ccccc2)C(C)=CC(=O)C=C1C	-1.6	2.2	-5.1%	-28.5	-3.9

The results go on:
SMILES	Mtb bLac sens	Arbovirus anti	Mtb H37Rv	YopH inh	RecA splice inh	others
CCOc1ccc2nc(N3CCC(C(=O)NCCCN4CCOCC4)CC3)sc2c1	10.9	·	3.1%	·	-2.3
O=C(COc1ccccc1[N+](=O)[O-])Nc1cccc(Cl)c1N1CCOCC1	2.5	·	·	·	3.0
O=C(COc1cc2oc(=O)c3c(c2cc1Cl)CCCC3)NCC1CCC(C(=O)O)CC1 (configuration not stated)	-3.3	·	·	·	-0.3
CCc1ccc(CSc2nccn2-c2ccccc2)cc1	4.5	-4.8	15.1%	-40.4	8.5
Cc1ccc2c(c1)[nH]c1c(=O)n(Cc3ccccn3)cnc12	-11.1	0.6	1.1%	-48.0	-3.4
COc1ccccc1CC1C(=O)C2CCN1CC2 (configuration not stated)	-8.2	1.7	-8.4%	3.5	0.4
COc1ccc(/C=N/NC(=O)CN(C)C(=O)OCc2ccccc2)cc1OC	-2.2	·	·	·	-1.1
Cc1ccc(NS(=O)(=O)c2ccc(Cl)c(C(=O)Nc3ccccc3-c3nc4ccccc4[nH]3)c2)cc1C	13.0	-22.7	8.4%	-15.8	-2.5
CSc1sccc1/C=N/O	-0.2	·	3.9%	·	-1.9
O=C(Oc1c(Cl)cc(Cl)c2cccnc12)N1CCOCC1	-10.6	-1.2	-3.1%	3.9	-0.6	Arbovirus anti repeat=-1.0
Cc1ccccc1NC1=NCCCS1	-6.2	8.7	6.0%	29.3	-2.8
CCNc1nc(C)nc2c1oc1ccccc12	-3.1	8.3	5.6%	-48.7	-8.0	Arbovirus anti repeat=3.1
O=c1c2c3c(sc2nc2n1CCCCC2)C(O)CCC3 (configuration not stated)	-4.4	-6.3	5.8%	·	2.4
COc1ccc(-c2ccc(=O)n(CC(=O)Nc3nnc(C(C)C)s3)n2)cc1OC	-6.2	9.2	-7.1%	-17.3	0.1
Cc1cc(NC(=O)C2=C(O)c3ccccc3S(=O)(=O)N2C)no1	-2.1	0.1	-6.7%	-35.8	6.6
CCNc1ccc2noc3c2c1C(=O)c1ccccc1-3	45.9	-19.2	17.2%	-19.7	-2.2
CCOC(=O)Cc1cnc(NC(=O)CSc2nc(C(C)C)cc(=O)[nH]2)s1	1.3	·	·	·	2.6
CCOC(=O)c1cn(CC)c2ccc(S(=O)(=O)N3CCC(C)CC3)cc2c1=O	-7.4	6.3	9.4%	-51.0	-0.9
COCCNC(=O)CSc1nc2ccc(N3CCOCC3)cc2c(=O)n1CCc1ccccc1	7.3	5.0	-0.9%	-32.0	-2.3
CN1CCN(S(=O)(=O)c2ccc(SCCOc3ccccc3)nc2)CC1	-6.7	-2.5	1.8%	-15.8	2.8
COCCCNC(=O)Cn1c(=O)n(CC(=O)N2CCCCC2)c(=O)c2sccc21	?	·	·	·	-2.5
CCOC(=O)C(NCCCCl)c1ccccc1 (configuration not stated)	0.1	3.0	2.8%	-2.4	-4.7
CC(C)(C)n1nnnc1C(c1ccc(Cl)cc1)N1CCCc2ccccc21 (configuration not stated)	8.3	3.2	-4.1%	-12.2	-2.5
Cc1c(NC(=O)C2CCCN2C(=O)c2cccs2)c(=O)n(-c2ccccc2)n1C (configuration not stated)	5.4	6.1	-6.0%	-41.8	4.1
COC(=O)CSc1nc(COc2ccccc2)nc2ccccc12	-3.0	·	·	·	14.1
Cc1ccc(C(=O)c2c3ccc(N)cc3nn2CCC(N)=O)cc1	31.9	·	·	·	10.9
O=c1[nH]c2ccccc2nc1CCc1ccccc1	-6.9	-1.2	1.4%	·	-0.4
O=C(O)COCCN1CCN(C(c2ccccc2)c2ccc(Cl)cc2)CC1 (configuration not stated)	-6.2	13.1	6.0%	-10.8	4.9
COc1ccc(S(=O)(=O)N(C)c2ccc(C(=O)NCc3ccncc3)cc2)cc1	-3.1	·	·	·	-0.6
N#Cc1c(-c2ccncc2)c2c([nH]c1=O)-c1ccccc1OC2	-0.5	·	-1.2%	·	-266.9
CCOc1ccccc1CNC(=O)C1CCN(C(=O)N2CC(C)Oc3ccc(C)cc32)CC1 (configuration not stated)	8.0	·	·	·	3.9
COc1cc(C(=O)N/C(=C\c2cn(C)c3ccccc23)C(=O)NCCCO)cc(OC)c1OC	-0.3	-0.7	-1.8%	·	-1.2
